Screening data from PubChem.
GIV Gai3 FP = inhibitors of GIV GBA-motif binding to rat Galpha-i3 | Galpha-i3/FITC-GIV peptide fluorescence polarization, 90 min; stronger effect = lower value; scaled: aluminum fluoride 0%, vehicle 100% | percent of control (FP), % (test concentration not listed) | 210,000 tested, 0.42% active;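 active = replicate mean at 85% of control or lower, very high polarization wells dropped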;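 note: wells of about 15 µL received 100 nL stock; the first replicate is given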
Target sequence (P08753 whole entry, looked up): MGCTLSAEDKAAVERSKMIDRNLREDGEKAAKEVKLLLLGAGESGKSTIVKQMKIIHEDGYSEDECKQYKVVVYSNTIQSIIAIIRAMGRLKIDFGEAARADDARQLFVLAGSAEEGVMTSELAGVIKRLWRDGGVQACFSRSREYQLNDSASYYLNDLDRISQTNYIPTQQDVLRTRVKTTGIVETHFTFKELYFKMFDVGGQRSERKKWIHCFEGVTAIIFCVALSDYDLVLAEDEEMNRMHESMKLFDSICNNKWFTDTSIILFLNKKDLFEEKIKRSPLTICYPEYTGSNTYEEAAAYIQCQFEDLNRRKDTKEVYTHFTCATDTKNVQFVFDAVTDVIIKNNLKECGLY
Sa growth 42C = blocks Staphylococcus aureus growth; S. aureus RN4220 growth, OD600, 20 h, 42 °C; stronger effect = lower value; relative growth, % (concentration not given with the values); 170,000 tested, 0.53% active;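 active = growth at 42 °C up to 50% and 20 or more points under that at 30 °C, or under 10% at both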;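 note: 300 nL library stock went into each well; scaled to the means of positive and negative controls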
HCMV NEC inh = inhibitors of HCMV UL50-UL53 nuclear egress complex interaction | AID 1918969 | inhibition, % (test concentration not listed) | 190,000 tested, 0.15% active | HTRF UL50-UL53 interaction, normalized percent inhibition;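 active = both replicates at 50% or more, plus weaker picks with an unusually low signal ratio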;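 note: stock transfer was 100 nL into about 20 µL; 0% = negative control wells and 100% = wells with untagged competitor protein; inactives centre near -12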
Sa growth 42C second temp = also measured in Sa growth 42C; calls as there; relative growth, %; measured here: growth at 30 °C;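 optical density after 20 h as mean of two plates; 100% = untreated growth and lower means inhibition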
The depositor's hits bear a star; x = no result given; & = joins results of further samples.

Every second line gives: HCMV NEC inh	GIV Gai3 FP	Sa growth 42C second temp	Sa growth 42C
CN1CCN(CC(=O)Nc2sc3c(c2C#N)CCCC3)CC1
    -8	106	x	x
COc1ccc(O)c(CNn2c(-c3cc(OC)c(OC)c(OC)c3)nc3ccccc3c2=O)c1
    -27	104	x	x
Cn1c(=O)c(=O)n(C)c2cc(N3CCCC3)c(NC(=O)c3ccc(C(C)(C)C)cc3)cc21
    -20	105	79	94
Cc1cccc(NC(=O)c2ccc3[nH]c(C)cc(=O)c3c2)c1
    11&-1	102&103	89	102
CCOC(=O)c1c(C)[nH]c(C)c1S(=O)(=O)N1CCCC(C(=O)N2CCN(c3cccc(Cl)c3)CC2)C1 (centres undefined)
    x	106	34	38
CCOC(=O)c1cc(S(=O)(=O)N2CCCC2C(=O)N2CCc3ccccc32)cn1C (centres undefined)
    -16	105	x	x
CCn1cc(CO)c(C)n1
    -20	100	81	78
O=C(c1cccs1)c1cn(CCOc2ccccc2)c2ccccc12
    x	99	88	119
COc1ccc(-c2cc(C)no2)cc1S(=O)(=O)N1CCN(c2ccc(C(C)=O)cc2)CC1
    x	97	92	103
O=C(Oc1ccc(Br)cc1)C1CCC(N2C(=O)C3C4C=CC(C4)C3C2=O)CC1 (centres undefined)
    -6	106	92	100
CCN(Cc1ccncc1)C(=S)Nc1ccccc1
    5	108	97	101
CCOC(=O)CSc1nnc(-c2ccncc2)n1C
    -240	97	92	97
Cc1ccc(CSc2ncc(Cl)c(C(=O)Nc3nc4ccc(C)cc4s3)n2)cc1
    -33	97	85	90
CN1CCN(CCc2nnc3n2CCCCC3)CC1
    -27	x	77	90
CCNC(=S)N(C)c1ccc(O)cc1
    1	x	92	110

More structures follow.
Every second line gives: HCMV NEC inh	GIV Gai3 FP	Sa growth 42C second temp	Sa growth 42C
CCOC(=O)C1CCCN(C(=O)c2nn(-c3ccc(C)cc3)c(=O)c3c2c2ccccc2n3C)C1 (centres undefined)
    -21	99	87	100
CCc1ccc(NC(=O)CN2C(=O)CCSc3ccccc32)cc1
    -21&-26	101&103	87	98
COc1ccc(NC(=O)c2cccc(N3CCCS3(=O)=O)c2)cc1OC
    -11	104&106	89	88
COC(=O)c1cc2sccc2n1CC(=O)N(C)c1ccccc1
    x	103	88	117
CCC(=O)Nc1ccc(-c2nc3cc(Cl)ccc3o2)cc1
    -11	103	88	98
O=S1(=O)C[C@H](NCc2ccc3c(c2)OCO3)[C@@H](S(=O)(=O)c2ccc(F)cc2)C1
    -14	96	x	x
Cc1cc(C(=O)COC(=O)/C=C/c2ccco2)c(C)n1C
    -74	x	94	101
O=C(Nc1cccc(C(F)(F)F)c1)C(Sc1cccc[n+]1[O-])c1ccccc1 (centres undefined)
    20	x	95	99
O=C(COc1ccccc1O)OCCO
    -1	x	99	90
O=C(CCCC(=O)n1nnc2ccccc21)Oc1ccccc1F
    5	x	91	86
Cc1cccc(C(=O)OCC(=O)N(C)C)c1O
    6	x	95	103
Cc1cc(C)cc(OCCCn2c(CCNC(=O)C3CCCCC3)nc3ccccc32)c1
    -9	107	86	105
Cc1cc(C(=O)CSc2nnc(C(F)(F)F)n2C)c(C)n1C1CC1
    -11	x	89	94
CNC(=O)c1cccc(N2CCCC2=O)c1
    -7	99	92	102
O=C(c1cc(-c2ccccc2O)on1)N1CCCC1
    -1	105	91	88

(continued)
Every second line gives: HCMV NEC inh	GIV Gai3 FP	Sa growth 42C second temp	Sa growth 42C
O=c1ccc(-c2ccc(F)cc2)n[nH]1
    x	97	88	82
COc1ccc(N(Cc2cc3cccc(C)c3[nH]c2=O)C(=O)c2cccc(Cl)c2)cc1
    -10	106	89	106
O=C(CSc1nc2ccccc2c(=O)[nH]1)Nc1ccccc1N1CCOCC1
    -4	x	91	127
CC(C)Oc1cccc(NC(=O)c2csnn2)c1
    0	98	90	100
Cc1cc(C)cc(NC(=S)NC(=O)C2CC2)c1
    -7	102	82	106
COc1ccc(CC(=O)N(C)Cc2cccc(OC)c2OC)cc1
    0	x	93	111
CCN(CC)S(=O)(=O)c1ccc(-c2ccc(/C=C3/N=C4CCCCCN4C3=O)o2)cc1
    -31	x	88	75
CCN1CCN(Cc2ccc(NC(=O)Nc3ccccc3)cc2)CC1
    x	106	102	113
O=C(/C=C/c1ccco1)Nc1ccc(N2CCCC2)cc1
    -14	x	85	101
COc1ccc(CNC(=O)CCn2nc(C)c3c(C)n(-c4ccccc4)nc3c2=O)cc1OC
    x	98	95	102
O=C1CSC2=NC3=C(CCCC3=C3SCCCS3)C(c3ccccc3)N12 (centres undefined)
    0	x	98	121
COCC(C)n1c(C)cc(C(=O)COC(=O)c2ccc(C#N)cc2)c1C (centres undefined)
    -12	x	91	81
CCOC(=O)c1ccc(N2C(=O)c3[nH]nc(-c4ccc(C)cc4)c3C2c2cccc(F)c2)cc1 (centres undefined)
    -15	102	74	114
CCOc1ccc(-c2oc3cc(Cl)ccc3c(=O)c2O)cc1OC
    -12	157	99	92
COc1cc(C=C2C(=O)NC(=O)NC2=O)cc(Cl)c1OCCOc1ccc(C)cc1
    1	103	x	x

Other entries follow.
Every second line gives: HCMV NEC inh	GIV Gai3 FP	Sa growth 42C second temp	Sa growth 42C
CCn1c(SCC(=O)N/N=C/c2ccccc2)nnc1-c1ccccc1
    -20	105	81	92
Cc1csc(SC(C)C(=O)Nc2ccccc2C)n1 (centres undefined)
    -21	x	87	65
O=C(O)c1cccc(NC(=O)c2ccco2)c1
    -17	94	85	99
CC1=C(C(=O)Nc2ccc(F)cc2)C(c2ccc(F)cc2)C2=C(CC(c3ccccc3)CC2=O)N1 (centres undefined)
    x	99	81	86
CC(=O)c1ccc(NC(c2ccc(F)cc2)c2nnc(-c3ccccc3)o2)cc1 (centres undefined)
    x	98	90	83
CC1=C(O)C(=O)OC1c1c(Cl)cccc1Cl (centres undefined)
    -21	105	84	91
O=S(=O)(c1ccc(Cl)cc1)c1nc(-c2cccs2)oc1SCc1ccccc1F
    -23	105	97	91
CC(=O)c1ccc(NC(=O)CSc2ccc3nc(-c4ccccc4)cn3n2)cc1
    x	105	75	108
CCOC(=O)c1sc2nc(SCC(=O)C(C)(C)C)n(N)c(=O)c2c1C
    x	108	81	89
CCN(c1ccccc1)S(C)(=O)=O
    -12	102	106	127
N#CC(C#N)=Cc1ccc(-c2cccc(C(=O)O)c2)o1
    -23	102	73	94
CCC(=O)Oc1ccc2c(C)cc(=O)oc2c1C(=O)CC
    -44	102	78	92
CCC(=O)N1CCc2cc(Br)cc(S(=O)(=O)CCC(=O)NCCc3ccc(C)cc3)c21
    x	111	99	121
CC(C)Nc1ncnc2c1cnn2-c1ccccc1
    0	101&100	78	90
CN1C(=O)C2C=CC=CC2N=C1SCc1ccccc1F (centres undefined)
    -11	x	89	93

New compounds follow.
Every second line gives: HCMV NEC inh	GIV Gai3 FP	Sa growth 42C second temp	Sa growth 42C
COc1cc2cccc(OC)c(=O)c2c(OC)c1OC
    -94	100	80	88
O=C1Nc2ccccc2C1Cc1ccccc1 (centres undefined)
    -93	104	88	123
Cc1c(C(=O)Nc2ccc(C(=O)O)cc2)nnn1-c1ccccc1
    x	100	97	97
CCOc1ccc(NCc2cccn2-c2nnc(N3CCC(C(=O)NCc4ccc(C)cc4)CC3)s2)cc1
    -9	100	92	116
Cc1cccc(S(=O)(=O)NCc2cn3cccc(C)c3n2)c1
    -20	104	89	101
CCOC(=O)c1cnc2c(OC)cccc2c1NCCc1ccc(OC)c(OC)c1
    -30	101	68	80
CCCNC(=O)c1sc(-n2nc(C)cc2C)nc1C
    -1	98	x	x
COc1cccc(CNC(=O)C(NS(=O)(=O)c2cccs2)C(C)C)c1 (centres undefined)
    14	103	107	103
NC(=O)c1n[nH]c(=O)c2ccccc12
    -28	x	89	95
O=C1CCC(C(=O)O)=NN1
    -20	100	86	89
O=C(NCCCN1CCc2ccccc2C1)c1ccc(Cn2c(=O)c(=O)[nH]c3cccnc32)cc1
    -2	105	x	x
COC(=O)CSc1nc2sc3c(c2c(=O)n1Cc1ccccc1)CCCCC3
    10	95	x	x
O=c1[nH]c2ccc(N=Cc3ccc(O)cc3)cc2[nH]1
    2	x	92	90
CSc1nc(NS(=O)(=O)c2ccc(F)cc2F)nn1C
    -18	104	89	108
CC1=C(C)NC(=S)SC1
    -3	99	94	65

Remaining list, next part:
Every second line gives: HCMV NEC inh	GIV Gai3 FP	Sa growth 42C second temp	Sa growth 42C
CC(=O)N1CCc2c(sc3c2c(=O)n(Cc2ccccc2)c(=O)n3Cc2cc(C)ccc2C)C1
    -35	103	86	114
Cc1ccc(S(=O)(=O)Nc2cccc(-c3cn4cccc(C)c4n3)c2)c(C)c1
    -24	99	67	90
O=C(CN1CCc2ccccc21)N1CCN(S(=O)(=O)c2ccccc2)CC1
    -13	x	97	100
CCOC(=O)c1cc(C#N)c(Sc2n[nH]c(C(F)(F)F)n2)nc1C(F)(F)F
    -20	105	80	81
CC1/C(=N/O)CC(c2ccco2)NC1c1ccco1 (centres undefined)
    -24	98	96	90
CCc1ccccc1NC(=O)C(CC)CC
    8	104	97	110
Clc1ccc(N=C2SCCS2)cc1
    4	103	104	129
CC(C)(C)C(=O)N(CN1C(=O)c2ccccc2C1=O)c1cccc(F)c1
    -11	x	95	89
O=C1NC(=O)C(=Cc2ccc(-c3ccccc3)o2)C(=O)N1
    x	93	75	98
CCOC(=O)N1CCN(Cc2nc3cc(NC(=O)c4ccc(OC)cc4)ccc3n2C(C)C)CC1
    5	101	53	81
CC1=C(C#N)C(=O)N(C)C(C)(C)C1
    -9	92	85	93
Cc1cc(F)ccc1NC(=O)C(c1ccccc1)N1Cc2ccccc2C1=O (centres undefined)
    x	108	95	118
COC(CNC(=O)c1cccc(N2CCCC2=O)c1)OC
    x	105	87	93
CCC1=C(C(=O)OC)C(c2ccc(Br)cc2)n2ncnc2N1 (centres undefined)
    x	103	92	124
COc1ccc(N2CCN(Cc3cc(=O)oc4ccc(OC)cc34)CC2)cc1
    -31	96	89	101

Additional results follow:
Every second line gives: HCMV NEC inh	GIV Gai3 FP	Sa growth 42C second temp	Sa growth 42C
CSC1=NC2C(N1)N(C)C(=O)N2C (centres undefined)
    -10	x	86	95
O=C(COc1ccccc1F)Nc1ccc2nc(SCC(=O)N3CCCC3)sc2c1
    0	103	87	105
NC(=O)c1ccccc1NC(=O)COC(=O)CC1CCCC1
    -42	x	74	110
Cc1ccc2nc(SC3CCCC3)nc(=O)n2c1
    -37	103	80	103
O=C1c2cccc3cccc(c23)N1CNc1ncccn1
    -46	x	98	124
COc1ccc(CNC(=O)c2nnn(CC(=O)Nc3cc(C)cc(C)c3)c2N)cc1
    -20	103	78	105
COc1cccc(N2CC(C(=O)Nc3c(C(N)=O)oc4ccccc34)CC2=O)c1 (centres undefined)
    -14	104	87	111
Cc1ccc(OCC(=O)Nc2ccc3nc(SCC(=O)Nc4ccc(C)cc4C)sc3c2)cc1
    -34	103	85	104
Cc1ccc(N=Cc2cc3ccccc3nc2Cl)c(C)c1
    -17	x	100	100
CCOC(=O)C1CCCN(C(=O)C2CCN(c3ccc4nnc(C)n4n3)CC2)C1 (centres undefined)
    -26	99	x	x
Cc1ccc(-c2c(C(=O)NC(C)C)oc(=O)c3ccccc23)cc1
    x	109	87	85
O=C(CN(c1cccc(Br)c1)S(=O)(=O)c1ccccc1)N1CCOCC1
    -23	93	110	96
COC(=O)c1sc(NC(=O)C(F)(F)F)c(C(=O)OC)c1C
    -13	103	76	83
Nc1c(NCCO)c2ccccc2oc1=O
    -34	106	89	95
Cc1cc2c(cc1NS(=O)(=O)c1ccc(NC(=O)CC(C)C)cc1)n(C)c(=O)c(=O)n2C
    x	100	94	80

New compounds follow:
Every second line gives: HCMV NEC inh	GIV Gai3 FP	Sa growth 42C second temp	Sa growth 42C
c1cc2c(cc1COCc1ccc3c(c1)CCO3)CCO2
    -23	97	86	95
CCCN(C(=O)Cc1noc2ccc(C)cc12)c1ccc(F)cc1
    x	101	102	95
N#CC(=C1SC2CS(=O)(=O)CC2S1)c1nc2ccccc2s1 (centres undefined)
    -4	x	93	112
O=C(COc1ccc(Cl)cc1)OCC(=O)N1CCCCCC1
    -20	x	98	105
O=C(NCCc1csc2nc(-c3cccc(F)c3)nn12)c1cccc(F)c1
    -2	102	x	x
CS(=O)(=O)Nc1ccc2[nH]c(=O)[nH]c2c1
    -18	102	89	93
COc1cccc(Cn2c(=O)n(CCc3ccccc3)c(=O)c3c2c2cc(OC)ccc2n3C)c1
    x	105	86	93
